# LASV entry inh = Lassa virus entry inhibition; Lassa virus pseudotype entry inhibition, cell reporter; control for the full effect not named in the record; Potency, µM (series often up to 37.9 µM), for inactives: at the top dose activity change, negative = inhibition, actives largely listed as inhibitors; 1.2% of 300,000 active; active means well fitted inhibition curve with a large enough effect; inconclusive means small, poorly fitted or top-dose-only effect, or effect the other way; inactive means flat fitted curve, though single readings scatter; tested in HEK293 cells; further: on the % scale 0 is the no-effect control and ±100 the full control effect; nearly all actives have a fitted effect of over 50% in size; luciferase read-out
# Cruzain noTriton = inhibitors of Trypanosoma cruzi cruzain without detergent; AID 1476; 2.3% of 200,000 active; P25779; Potency, µM, for the others: max response, negative = inhibition, hits mostly inhibitors; purified cruzain, Z-FR-AMC fluorescence, no detergent; active means well fitted curve in the direction sought with a large enough effect; inconclusive means small, poorly fitted or top-dose-only effect, or another doubt; inactive means no such curve, though single readings can be large; an effect the other way counts as inactive or inconclusive;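 further: plate controls were enzyme without inhibitor for no effect and buffer without enzyme for full effect; nearly all actives have a fitted effect of over 40% in size; top concentration of the series not given in the record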
# Target sequence (P25779 123-467 limits assumed): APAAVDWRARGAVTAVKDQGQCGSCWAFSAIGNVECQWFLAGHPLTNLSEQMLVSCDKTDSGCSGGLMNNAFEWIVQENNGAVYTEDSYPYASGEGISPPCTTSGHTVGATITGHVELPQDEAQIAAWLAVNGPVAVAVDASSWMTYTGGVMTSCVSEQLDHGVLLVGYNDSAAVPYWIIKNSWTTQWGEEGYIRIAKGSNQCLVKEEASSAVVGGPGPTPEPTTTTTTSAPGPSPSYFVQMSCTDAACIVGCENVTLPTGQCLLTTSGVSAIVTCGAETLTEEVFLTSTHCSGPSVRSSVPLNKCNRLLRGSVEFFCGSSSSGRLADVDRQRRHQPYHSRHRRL
#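 Purified cruzain at 1.5 nM, pre-incubated 15 min with compound at room temperature in 100 mM sodium acetate pH 5.5, 5 mM DTT, 0.00005% Triton X-100. Reaction started with 2 uM Z-FR-AMC; AMC fluorescence increase over 60 s gives rate.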
# RE007 growth inh = less growth of the S. pombe RE007 Vpr strain. Potency, µM (doses to about 92.2 µM), without a hit: top-dose activity change, negative = less growth. 0.21% of 360,000 active. S. pombe RE007 Vpr strain, BacTiter-Glo ATP luminescence, 24 h; control for the full effect not named in the record; active = well fitted falling curve with a large enough effect; inconclusive = small, poorly fitted or top-dose-only effect; inactive = no such curve, though single readings can be large or run the other way;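 further: on the % scale 0 is the no-effect control and ±100 the full control effect; nearly all actives have a fitted effect of over 50% in size; the assay follows cell death caused by Vpr and the record does not say whether a fall means rescue or toxicity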
#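 Fission yeast strain RE007, carrying one chromosomally integrated HIV-1 vpr copy, was seeded at OD 0.01 in PMG+AL medium with 23 nL pinned compound. After 24 h at 30 °C and 99% humidity, viability was read by BacTiter-Glo luminescence.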
# Cruzain inh Det = blocks cruzain activity in presence of Triton detergent; P25779; purified cruzain, Z-FR-AMC fluorescence, 0.01% Triton; Potency, µM, for inactives: max response, negative = inhibition, hits mostly inhibitors; 0.43% of 200,000 active; active means well fitted curve in the direction sought with a large enough effect; inconclusive means small, poorly fitted or top-dose-only effect, or another doubt; inactive means no such curve, though single readings can be large; an effect the other way counts as inactive or inconclusive;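 further: plate controls were neutral wells for no effect and buffer without enzyme for full effect; nearly all actives have a fitted effect of over 40% in size; top concentration of the series not given in the record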
#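 Purified cruzain (1.5 nM final) was preincubated with compounds for 15 min at room temperature in 100 mM sodium acetate pH 5.5, 5 mM DTT, 0.01% Triton X-100. Reaction started with 2 uM Z-FR-AMC; AMC fluorescence change over 60 s gave activity.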
# SARS PLpro yeast = inhibitors of SARS-CoV papain-like protease in yeast. S. cerevisiae expressing SARS-CoV PLpro, growth rescue; control for the full effect not named in the record. Potency, µM (doses to about 32.9 µM), without a hit: at the highest dose activity, positive = growth rescue. 0.19% of 330,000 active. AID 485353; further: 0% is about no effect; nearly all actives have a fitted effect of over 55% in size; growth read by luminescence after 48 h
# MARV entry inh = inhibitors of Marburg virus binding or cell entry; Marburg virus pseudotyped entry inhibition, cell reporter; control for the full effect not named in the record; about a third of the inactives were read at about 46 µM; Potency, µM (titrated, usually from 37.8 µM), inactives show at the highest dose activity change, negative = inhibition, hits mostly inhibitors; 1.8% of 300,000 active; AID 540276; active = well fitted inhibition curve with a large enough effect; inconclusive = small, poorly fitted or top-dose-only effect, or effect the other way; inactive = flat fitted curve, though single readings scatter; tested in HEK293 cells; about a fifth of its hits are not listed in these tables; further: on the % scale 0 is the no-effect control and ±100 the full control effect; luciferase read-out
# NS1 inh = inhibitors of influenza NS1 protein function; S. cerevisiae slowed by influenza A NS1, growth recovery by OD600; Potency, µM (highest dose often 46.1 µM), for the others: at the top dose activity, positive = more growth; 0.4% of 270,000 active; AID 2326; further: actives are rising curves; nearly all actives have a fitted effect of over 50% in size
#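 A cell-based growth assay was used: compounds that relieve NS1-induced slow growth of budding yeast raise OD600. Assay medium was yeast nitrogen base with ammonium sulphate and -URA supplement, pH 6.0, with 2% galactose.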
# StopGo reporter = FMDV 2A StopGo reporter, luciferase signal; human cells with a luciferase reporter of 2A StopGo recoding; control for the full effect not named in the record; Potency, µM (top dose mostly 57.9 µM), for inactives: at the highest dose signal change, negative = less light; 1.2% of 410,000 active; AID 1159524; active = well fitted falling curve with a large enough effect; inconclusive = small, poorly fitted or top-dose-only effect; inactive = no such curve, though single readings can be large or run the other way; tested in HEK293T cells; further: on the % scale 0 is the no-effect control and ±100 the full control effect; nearly all actives have a fitted effect of over 45% in size; luciferase light after 4 h
# Active calls of the source: *; ? = inconclusive; nt = not tested or not shown; & = joins results of further samples; [ ] = another dose, or the depositor's remark. Unless noted, the call rests on the fitted dose curve; in most records, active means well fitted rising curve with a large enough effect; inconclusive means small, poorly fitted or top-dose-only effect; inactive means no such curve, though single readings can be large or run the other way. Potency means the concentration at half of the fitted maximal effect.
SMILES,LASV entry inh,Cruzain noTriton,RE007 growth inh,Cruzain inh Det,SARS PLpro yeast,MARV entry inh,NS1 inh,StopGo reporter
Cc1ccc(Cl)cc1N1CCN(C(=O)Cc2c(C(=O)O)[nH]c3ccc(Cl)cc23)CC1,-1%[46.1 µM],nt,3%,nt,2%,8%[46.1 µM],nt,-3%
COc1ccc(NC(=O)C2=CC(c3ccco3)=NS(=O)(=O)N2C)cc1OC,-8%[46.1 µM],5%,-5%,-4.3%,-3%,3%[46.1 µM],7%,-25%&-20%
Cc1cccc(C(C)C)c1NC(=O)COC(=O)CCN1C(=O)C2CC=CCC2C1=O (stereo not drawn),-20%,nt,4%,nt,1%,-5%,0%,6%
COC(=O)c1ccc(C2NCCc3cc(OC)c(OC)cc32)cc1 (stereo not drawn),13%,nt,14%,nt,2%,?,-1%,-11%
COC(=O)c1cccc(NC(=O)NC(=O)c2ccc(Cl)cc2)c1,?,nt,-8%,nt,-1%,?,-4%,32%[activator]
CCn1c(=S)[nH]c2sc3c(c2c1=O)CCCCC3,nt,nt,3%,nt,0%,nt,9%,1%
O=C(NCCCN1CCCC1=O)Nc1ccc(Br)cc1Cl,nt,nt,-20%,nt,3%,nt,0%,0%
O=S(=O)(c1cccc2nonc12)N1CCCCC1,15%,nt,1%,nt,-3%,?,1%,-12%
COc1ccc(NC(=O)CN(C)C(=O)C2(c3ccccc3)CCCC2)cc1,-11%[46.1 µM],nt,-4%,nt,-4%,-13%[46.1 µM],nt,-18%
CCC(CC)C(=O)Nc1cccc(C(=O)Nc2nnc(C)s2)c1,nt,nt,11%,nt,1%,-7%[46.1 µM],4%,8%
COc1ccc(/C=C2/SC(=S)N(CCCC(=O)Nc3ccc(O)cc3)C2=O)cc1OC,nt,nt,16%,nt,4%,nt,-1%,-21%
COc1ccc(-c2cc(C(=O)N(C)CCc3ccc(OC)c(OC)c3)c3ccccc3n2)cc1,?,nt,7%,nt,-1%,?,10%,10%
CCn1c(SCC(=O)N(C)c2c(N)n(Cc3ccccc3)c(=O)[nH]c2=O)nc2ccccc21,-13%,nt,6%,nt,1%,-16%[46.1 µM],-1%,5%
CCC(C)NC(=O)c1ccc2c(=O)n3c(nc2c1)CCCCC3 (stereo not drawn),12%[46.1 µM],-5%,nt,2.2%,nt,22%[46.1 µM],nt,37%[activator]
COc1ccc(NC(=O)c2c(C)cc(=O)oc2C)c(OC)c1,26%,-1%,-10%,0.5%,-6%,-2%,0%,-8%
Cc1cc(C)cc(NC(=O)c2oc3ccccc3c2COc2ccccc2)c1,-6%,?,1%,-5.2%,-7%,?,10%,?
COc1cc2cc(/C=C/C(=O)c3ccco3)c(Cl)nc2cc1OC,-7%,?,-10%,-2.7%,-2%,?,-4%,-13%
CCS(=O)(=O)n1nc(-c2ccccc2)nc1N,4%,5%,28%,-0.7%,14%,2%,3%,35%[activator]
CC(C)C[C@H](NC(=O)N1CC(=O)Nc2ccccc21)C(=O)N[C@H](C(=O)O)c1ccccc1,nt,nt,3%,nt,-1%,nt,15%,-13%
CCn1cc2nc(SCc3ccc(F)cc3)n(CCc3ccccc3)c(=O)c2n1,?,?,nt,-3.6%,nt,nt,nt,0%
Cc1ccc(NC(=O)CSc2nnc(CSc3nc(C)cc(C)n3)n2Cc2ccco2)c(C)c1,2%,18%,-15%,-1.3%,1%,7%&7%,-4%,13%
Cc1ccc(CCNC(=O)CCS(=O)(=O)c2ccc(Br)cc2)cc1,nt,nt,6%,nt,0%,nt,0%,-9%
COc1ccccc1OCC(=O)/C=C1/N(C)c2ccccc2C1(C)C,-24%,nt,5%,nt,1%,19%[46.1 µM],-4%,?
Cc1ccc(/C=C2/NC(=O)N(Cc3ccccc3)C2=O)s1,?,-24%,0%,2.7%,-1%,2%,4µM*,0%
COc1ccc2oc(=O)cc(CN3CCN(c4ccc(F)cc4)CC3)c2c1,-8%[46.1 µM],-29%,nt,-2.2%,nt,?,nt,?
CCOC(=O)c1c(C)[nH]c(CCC(=O)NCCCN2CCN(c3cc(Cl)ccc3C)CC2)c1C,?,8%,nt,3.0%,nt,nt,nt,?
CC(Cc1ccccc1)=NNS(=O)(=O)c1ccc([N+](=O)[O-])cc1,24%[46.1 µM],nt,-10%,nt,nt,1%[46.1 µM],nt,5%
CCOC(=O)c1c(-c2ccccc2)oc2ccc(N(C(C)=O)S(=O)(=O)c3ccccc3)cc12,-8%[46.1 µM],2%,nt,-2.1%,nt,8%[46.1 µM],nt,15%
O=C(COC(=O)c1ccccc1NC(=O)c1ccco1)NCCC1=CCCCC1,?,-2%,0%,3.3%,-3%,8%,-7%,0%
CC(=O)OCc1c(C(F)(F)F)nn(C)c1SCc1ccc(Cl)cc1,10%,13%,12%,-7.6%,-37%,6%,-1%,-12%
COC(=O)c1ccc(CNC(=O)COC(=O)CCC(=O)c2ccc(F)cc2)cc1,-6%,nt,-9%,nt,-7%,-2%,nt,-20%
O=C(COc1ccc([N+](=O)[O-])cc1Cl)Nn1cnnc1,nt,nt,4%,nt,0%,nt,4%,-18%
CCOC(=O)C1=C(c2ccccc2)NC(SCC(=O)Nc2ccc(C)cc2)=C(C#N)C1c1ccco1 (stereo not drawn),-24%,?,-4%,6.3%,nt,?,-33%,-21%
COc1ccc(N(Cc2cc3ccccc3[nH]c2=O)C(=O)c2cccc(Cl)c2)cc1,?,6%,nt,-8.9%,nt,?,nt,-28%
O=C(CCCc1ccccc1)Nc1ccccn1,20%[46.1 µM],nt,6%,nt,-1%,9%[46.1 µM],-4%,21%
Cc1cccc(CN2C(=O)/C(=C\c3ccc(C(=O)NCCN4CCOCC4)cc3)Sc3ccccc32)c1,?,nt,7%,nt,-5%,?,16%,40µM*
COC(=O)c1sccc1NC(=O)C1C2C=CC(C2)C1C(=O)O (stereo not drawn),4%,6%,5%,-1.5%,-5%,15%[46.1 µM],1%,-4%
Cc1cc(-c2ccc(C)c(S(=O)(=O)NCc3ccc(OC(C)C)cc3)c2)on1,nt,nt,3%,nt,-4%,nt,-21%,-11%
CC1CCCCC1NC(=O)C(Cc1ccccc1)NS(=O)(=O)c1cccs1 (stereo not drawn),1%,-12%,-3%,-1.6%,?,?,16%,nt
COc1ccc(NC(=O)c2cc(Cl)ccc2NC(=O)c2ccco2)c(OC)c1,?,?,-16%,-7.2%,2%,?,-24%,-22%
O=C(C1CCCN(S(=O)(=O)c2ccc([N+](=O)[O-])cc2)C1)N1CCCCC1 (stereo not drawn),-9%,nt,-2%,nt,2%,?,5%,?
Cc1cc(OCC(=O)N2CCOCC2)ccc1[N+](=O)[O-],nt,nt,-6%,nt,0%,nt,4%,48%[activator]
Cc1cccc(-n2ncc3c(NCCCn4ccnc4)ncnc32)c1,?,11%,15%,-1.2%,-4%,?,-8%,71%[activator]
CCOc1ccc(S(=O)(=O)NCc2ccccn2)cc1NC(=O)c1ccccc1F,?,nt,2%,nt,4%,?,19%,16%
NC(=O)c1nsc(C(=O)N(c2ccc(Cl)cc2)C(C(=O)NCC2CCCO2)c2cccs2)c1N (stereo not drawn),?,nt,-7%,nt,0%,?,-2%,-27%
O=S(=O)(NC1=NCCC1)c1cccs1,4%,7%,5%,-1.9%,-8%,3%,3%,nt
O=C(NC(=S)Nc1ccc(N2CCCC2)cc1)c1ccc(F)cc1,?,nt,1%,nt,-3%,0%,0%,-8%
COc1ccc(CCCC(=O)NCC(=O)N/N=C/c2cc(Cl)ccc2OC)cc1,nt,nt,6%,nt,-1%,nt,-3%,?
Cc1c2ccncc2c(C)c2c1[nH]c1ccccc12,6.5µM*,?,-29%[18.4 µM],?,-4%,4.1µM*,-31%&-43%,-21%
CCN(c1ccccc1)P(=O)(Nc1ccccc1)Nc1ccccc1,-16%,nt,3%,nt,-3%,-19%[46.1 µM],-2%,24%
O=C(C1=C[C@@H](c2ccc(Br)cc2)C[C@@H](OCc2ccc(CO)cc2)O1)N1CCN(Cc2ccc3c(c2)OCO3)CC1,nt,nt,9%,nt,0%,nt,-2%,?
C[C@]12CC[C@H](O)CC1=CCC1C2CC[C@@]2(C)C1CC[C@@H]2NC(=O)CCC(=O)O (stereo partly drawn),10%,nt,0%,nt,-1%,3%,nt,-8%
CCc1ccccc1NC(=O)CC1NCCNC1=O (stereo not drawn),-7%[46.1 µM],11%,nt,0.2%,nt,4%[46.1 µM],nt,-13%
COc1cccc(NC(=O)CN2C=NS(=O)(=O)c3ccccc32)c1,17%[46.1 µM],-3%,nt,3.9%,nt,nt,nt,9%
Cc1cc([N+](=O)[O-])nn1CC(=O)Nc1ccc(Cl)cn1,-6%[46.1 µM],nt,2%,nt,-3%,-1%[46.1 µM],5%,-8%
COc1ccccc1NC(=O)N1CCCC1C(=O)NCc1ccccc1Cl (stereo not drawn),nt,nt,0%,nt,-2%,nt,3%,6%
CCN(CCCNC(=O)CSc1cc(=O)n(C)c2cc(Cl)ccc12)c1cccc(C)c1,0%[46.1 µM],?,nt,-3.3%,nt,-8%[46.1 µM],nt,-14%
CCOC(=O)C1(Cc2ccc(Cl)cc2)CCN(Cc2nccn2CC)CC1,-8%[46.1 µM],nt,-12%,nt,-1%,?,-1%,?
COCCNC(=O)C(=O)NCC1OCCN1C(=O)c1ccc(Cl)cc1 (stereo not drawn),2%,1%,21%,0.5%,25%,1%,7%,4%
COc1cc(NC(=O)C2CCN(S(=O)(=O)c3ccc4c(c3)oc(=O)n4C)CC2)cc(OC)c1,1%[46.1 µM],?,nt,-1.4%,nt,-15%[46.1 µM],nt,-15%
# Next section.
SMILES,LASV entry inh,Cruzain noTriton,RE007 growth inh,Cruzain inh Det,SARS PLpro yeast,MARV entry inh,NS1 inh,StopGo reporter
O=C(NCCc1nc2ccccc2[nH]1)/C(=C/c1ccc2c(c1)OCO2)NC(=O)c1ccccc1,15%,-1%,-3%,-13%,16%,-12%,-5%,-6%
O=C(COC(=O)Cc1cccs1)Nc1ccc(F)c(F)c1F,-4%,-1%,-5%,-1.6%,-1%,1%[46.1 µM],-1%,4%
O=C(Nc1ccc(Br)cc1)c1cc(S(=O)(=O)Nc2ccccn2)ccc1Cl,-12%[46.1 µM],nt,-22%,nt,7%,-9%[46.1 µM],14%,22%
CCOc1ccc(/C=C(\C#N)c2nc(-c3cc4ccccc4oc3=O)cs2)c(OCC)c1,13%[46.1 µM],4%,nt,0.4%,nt,nt,nt,4%
COc1cccc(C(=O)c2c[nH]c(C(=O)NCCCN(C)C)c2)c1,?,nt,6%,nt,1%,-6%[46.1 µM],-1%,-2%
